From PubChem BioAssay
A1 apoptosis 2 – blocks A1, raising caspase activity; 24,000 tested, under 10 active; AID 2465; caspase activation, % (concentration not given with the values); MEF A1-2A-BIM cells, caspase-Glo luminescence, 3 h; percent of clofoctol response, DMSO zero; in the data active = caspase activation above about 5.9%;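 also: wells of about 30 µL received 50 nL stock; the first replicate is given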
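Test system – A1-2A-BIM-expressing MEF cells · Input – 2500 cells/well · Medium – RPMI-1640 growth medium with 10% FBS · Compound dosing – 50 nL pinned compound · Timing – 3 h compound exposure at 37 °C · Technique – Caspase-Glo luminescence (DEVD substrate) · Evaluation – Caspase-3/7 activity from luminescence increase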
The depositor's hits bear a star.

SMILES	A1 apoptosis 2
O=C(NO)c1cccc(C(=O)N/N=C/c2ccc([N+](=O)[O-])c(O)c2)c1	-1.2
C[C@H]1CN([C@@H](C)CO)C(=O)CCCn2nncc2CO[C@@H]1CN(C)C(=O)Nc1cccc(C(F)(F)F)c1	-4.0
C[C@H](CO)N1C[C@H](C)[C@H](CN(C)S(=O)(=O)c2cccs2)Oc2ccc(NC(=O)Nc3cccc4ccccc34)cc2CC1=O	0.7
C[C@H](CO)N1C[C@H](C)[C@@H](CN(C)S(C)(=O)=O)OCCCC[C@H](C)Oc2ccc(NS(=O)(=O)c3ccc(Cl)cc3)cc2C1=O	-0.5
Cc1noc(C)c1NC(=O)N(C)C[C@H]1Oc2ccc(NC(=O)Cc3cn(C)c4ccccc34)cc2CC(=O)N([C@H](C)CO)C[C@@H]1C	0.5
Cc1ccc(OC(=O)N(C)C[C@H]2OCc3cn(nn3)CCCC(=O)N([C@@H](C)CO)C[C@H]2C)cc1	-0.6
C[C@H]1CN([C@@H](C)CO)C(=O)c2cccc(NC(=O)c3cnccn3)c2O[C@H]1CN(C)C(=O)Nc1ccc(C(F)(F)F)cc1	1.2
COc1ccc(NC(=O)N(C)C[C@@H]2Oc3ccc(NC(=O)C4CCCCC4)cc3CC(=O)N([C@H](C)CO)C[C@@H]2C)cc1	-0.1
C[C@@H]1CCCCO[C@@H](CN(C)Cc2ccncc2)[C@@H](C)CN([C@@H](C)CO)C(=O)c2cc(NS(C)(=O)=O)ccc2O1	0.1
C[C@@H]1CCCCO[C@H](CN(C)C(=O)Nc2ccc(C(F)(F)F)cc2)[C@H](C)CN([C@@H](C)CO)C(=O)c2cc(NS(=O)(=O)c3ccc(Cl)cc3)ccc2O1	-1.3
C[C@@H]1CN([C@@H](C)CO)C(=O)c2cc(NC(=O)Nc3ccc(C(F)(F)F)cc3)ccc2O[C@@H](C)CCCCO[C@@H]1CN(C)S(=O)(=O)c1cn(C)cn1	-1.7
C[C@H]1CN([C@@H](C)CO)C(=O)c2cc(NC(=O)Nc3ccc(F)cc3)ccc2O[C@@H]1CN(C)CC1CC1	-0.2
C[C@H](CO)N1C[C@H](C)[C@H](CN(C)C(=O)Nc2ccccc2)Oc2ccc(N(C)C)cc2CC1=O	-2.3
CC(C)NC(=O)N(C)C[C@H]1Oc2ccc(NC(=O)CCN3CCOCC3)cc2C(=O)N([C@@H](C)CO)C[C@@H]1C	0.3
COCCOC(=O)N1C(=O)[C@@]2(c3cc(C#CC4=CCCCC4)ccc31)[C@H](C(N)=O)[C@H]1C(=O)O[C@H](c3ccccc3)[C@H](c3ccccc3)N1[C@@H]2c1ccccc1OCCO	0.5
CC(C)NC(=O)Nc1ccc2c(c1)C(=O)N([C@H](C)CO)C[C@@H](C)[C@@H](CN(C)Cc1ccccc1)OCCCC[C@H](C)O2	-0.2
COc1ccc(S(=O)(=O)N(C)C[C@@H]2Oc3ccc(NC(=O)Nc4ccc(F)cc4)cc3C(=O)N([C@@H](C)CO)C[C@H]2C)cc1	-0.8
Cc1noc(C)c1S(=O)(=O)N(C)C[C@@H]1OCc2cn(nn2)CCCC(=O)N([C@@H](C)CO)C[C@H]1C	0.0
Cc1noc(C)c1S(=O)(=O)Nc1ccc2c(c1)CC(=O)N([C@H](C)CO)C[C@@H](C)[C@H](CN(C)S(=O)(=O)c1ccc(Cl)cc1)O2	-0.9
C[C@H]1CN([C@@H](C)CO)C(=O)Cc2cc(NC(=O)Cn3cnnn3)ccc2O[C@H]1CN(C)C(=O)Nc1ccc2c(c1)OCO2	-0.9

A few values from the entries so far.
A1 apoptosis 2, C[C@H]1CN([C@@H](C)CO)C(=O)c2cc(NC(=O)Nc3ccc(F)cc3)ccc2O[C@@H]1CN(C)CC1CC1 = -0.2
A1 apoptosis 2, C[C@@H]1CCCCO[C@H](CN(C)C(=O)Nc2ccc(C(F)(F)F)cc2)[C@H](C)CN([C@@H](C)CO)C(=O)c2cc(NS(=O)(=O)c3ccc(Cl)cc3)ccc2O1 = -1.3
A1 apoptosis 2, COCCOC(=O)N1C(=O)[C@@]2(c3cc(C#CC4=CCCCC4)ccc31)[C@H](C(N)=O)[C@H]1C(=O)O[C@H](c3ccccc3)[C@H](c3ccccc3)N1[C@@H]2c1ccccc1OCCO = 0.5
A1 apoptosis 2, Cc1ccc(OC(=O)N(C)C[C@H]2OCc3cn(nn3)CCCC(=O)N([C@@H](C)CO)C[C@H]2C)cc1 = -0.6

(next part)
SMILES	A1 apoptosis 2
C[C@H]1CN([C@@H](C)CO)C(=O)c2cc(NS(=O)(=O)c3ccccc3)ccc2O[C@H]1CN(C)C(=O)Nc1ccc(C(F)(F)F)cc1	-0.3
COc1ccc(NC(=O)Nc2ccc3c(c2)C(=O)N([C@H](C)CO)C[C@H](C)[C@@H](CN(C)Cc2ccc4c(c2)OCO4)O3)cc1	0.2
COc1ccccc1NC(=O)N(C)C[C@H]1OCc2cn(nn2)CCCC(=O)N([C@@H](C)CO)C[C@H]1C	1.0
C[C@@H]1CCCCO[C@H](CN(C)Cc2ccc3c(c2)OCO3)[C@@H](C)CN([C@H](C)CO)C(=O)c2cc(NS(=O)(=O)c3ccccc3)ccc2O1	-0.7
C[C@@H]1CN([C@@H](C)CO)C(=O)Cc2cc(N(C)C)ccc2O[C@H]1CN(C)Cc1ccc(C(F)(F)F)cc1	1.7
C[C@@H]1CN([C@@H](C)CO)C(=O)c2cc(NC(=O)Nc3ccc(F)cc3)ccc2O[C@@H]1CN(C)Cc1ccc2c(c1)OCO2	0.6
C[C@H](CO)N1C[C@H](C)[C@H](CN(C)Cc2ccncc2)Oc2ccc(NC(=O)CCN3CCOCC3)cc2C1=O	-1.2
C[C@H]1CN([C@@H](C)CO)C(=O)c2cccc(NC(=O)c3nc4ccccc4s3)c2O[C@H]1CN(C)Cc1ccc(C(=O)Nc2ccccc2N)cc1	1.3
CC(C)NC(=O)N(C)C[C@@H]1OCCCC[C@H](C)Oc2ccc(NC(=O)c3ccccc3)cc2C(=O)N([C@H](C)CO)C[C@@H]1C	0.8
COc1ccc(S(=O)(=O)N(C)C[C@@H]2Oc3ccc(NS(=O)(=O)c4cn(C)cn4)cc3CC(=O)N([C@H](C)CO)C[C@H]2C)cc1	0.0
C[C@@H]1CN([C@H](C)CO)C(=O)Cc2cc(NC(=O)c3ccncc3)ccc2O[C@@H]1CN(C)Cc1ccc(C(F)(F)F)cc1	0.2
CNC[C@H]1OCCCC[C@@H](C)Oc2ccc(NS(=O)(=O)c3ccccc3)cc2C(=O)N([C@@H](C)CO)C[C@@H]1C	-0.8
C[C@@H]1CN([C@@H](C)CO)C(=O)c2cc(NS(C)(=O)=O)ccc2O[C@H]1CN(C)CC1CCCCC1	-0.9
CNC[C@H]1Oc2c(N)cccc2C(=O)N([C@H](C)CO)C[C@H]1C	-0.9
C[C@@H]1CCCCO[C@@H](CN(C)C(=O)Cc2ccccc2)[C@H](C)CN([C@@H](C)CO)C(=O)c2cc(NC(=O)NC3CCCCC3)ccc2O1	-1.1
Cc1cc(C(=O)Nc2cccc3c2O[C@@H](CN(C)C(=O)Nc2ccc(F)cc2)[C@H](C)CN([C@@H](C)CO)C3=O)n(C)n1	0.3
C[C@@H]1CN([C@H](C)CO)C(=O)c2cccc(NS(=O)(=O)c3cccs3)c2O[C@@H]1CN(C)C(=O)Nc1ccc(C(F)(F)F)cc1	0.9
Cc1noc(C)c1S(=O)(=O)N(C)C[C@H]1OCCCC[C@H](C)Oc2ccc(NC(=O)C3CCCCC3)cc2C(=O)N([C@@H](C)CO)C[C@@H]1C	1.8
COc1ccc(S(=O)(=O)N(C)C[C@@H]2Oc3ccc(NC(=O)Nc4ccc(C(F)(F)F)cc4)cc3C(=O)N([C@@H](C)CO)C[C@@H]2C)cc1	0.6
C[C@@H]1CN([C@@H](C)CO)C(=O)Cc2cc(NS(=O)(=O)c3ccc(F)cc3)ccc2O[C@H]1CN(C)C(=O)Nc1ccc(C(F)(F)F)cc1	-0.9
CC(=O)c1ccc(N2CCOCC2)cc1O	-0.2
Cc1noc(C)c1NC(=O)N(C)C[C@@H]1Oc2ccc(NC(=O)Nc3ccc4c(c3)OCO4)cc2CC(=O)N([C@@H](C)CO)C[C@@H]1C	-0.3
C[C@H]1CN([C@@H](C)CO)C(=O)Cc2cc(NC(=O)CCC(F)(F)F)ccc2O[C@H]1CN(C)S(C)(=O)=O	-0.3
Cc1noc(C)c1NC(=O)N(C)C[C@@H]1Oc2c(NC(=O)Nc3cccc4ccccc34)cccc2C(=O)N([C@@H](C)CO)C[C@@H]1C	-0.8
C[C@@H]1CN([C@@H](C)CO)C(=O)c2cccc(NC(=O)c3ccc(-c4nccs4)cc3)c2O[C@@H]1CN(C)C(=O)Nc1ccc(C(F)(F)F)cc1	-0.6
C[C@@H]1CN([C@H](C)CO)C(=O)Cc2cc(NC(=O)CCCCCC(=O)Nc3ccccc3N)ccc2O[C@H]1CN(C)S(=O)(=O)c1ccc(F)cc1	1.3
C[C@H]1CN([C@@H](C)CO)C(=O)Cc2cc(NC(=O)CCN3CCOCC3)ccc2O[C@@H]1CN(C)Cc1ccc2c(c1)OCO2	-0.7
CC(C)NC(=O)Nc1ccc2c(c1)C(=O)N([C@H](C)CO)C[C@@H](C)[C@H](CN(C)C(=O)Nc1cccc3ccccc13)OCCCC[C@H](C)O2	0.6
C[C@@H]1CN([C@@H](C)CO)C(=O)CCCn2nncc2CO[C@@H]1CN(C)C(=O)Nc1ccc(-c2cccs2)cc1	0.4
C[C@@H]1CCCCO[C@@H](CN(C)Cc2ccccc2)[C@@H](C)CN([C@@H](C)CO)C(=O)c2cc(NC(=O)CCC(F)(F)F)ccc2O1	-0.3
COc1ccc(S(=O)(=O)N(C)C[C@H]2OCCCC[C@@H](C)Oc3ccc(NC(=O)Nc4ccccc4)cc3C(=O)N([C@@H](C)CO)C[C@H]2C)cc1	-1.2
C[C@@H]1CCCCO[C@H](CN(C)S(C)(=O)=O)[C@H](C)CN([C@@H](C)CO)C(=O)c2cc(NS(=O)(=O)c3cn(C)cn3)ccc2O1	0.1
C[C@@H]1CCCCO[C@@H](CN(C)S(C)(=O)=O)[C@@H](C)CN([C@@H](C)CO)C(=O)c2cc(NC(=O)C3CCCCC3)ccc2O1	-0.6
COc1ccc(S(=O)(=O)N(C)C[C@H]2Oc3ccc(NS(=O)(=O)c4cn(C)cn4)cc3CC(=O)N([C@@H](C)CO)C[C@H]2C)cc1	-0.9
C[C@H](CO)N1C[C@H](C)[C@@H](CN(C)C(=O)Nc2ccc3c(c2)OCO3)OCCCC[C@H](C)Oc2ccc(NS(=O)(=O)c3ccc(Cl)cc3)cc2C1=O	1.6
C[C@H](CO)N1C[C@H](C)[C@@H](CN(C)C(=O)Nc2ccc(C(F)(F)F)cc2)OCCCC[C@H](C)Oc2ccc(NC(=O)Nc3cccc4ccccc34)cc2C1=O	-1.2
C[C@@H]1CN([C@@H](C)CO)C(=O)c2cc(NS(C)(=O)=O)ccc2O[C@@H](C)CCCCO[C@H]1CN(C)C(=O)NC1CCCCC1	0.4
Cc1noc(C)c1NC(=O)N(C)C[C@H]1Oc2c(NC(=O)c3ccc(-c4nccs4)cc3)cccc2C(=O)N([C@@H](C)CO)C[C@@H]1C	1.5
COC(=O)[C@H]1N=C(c2ccc(OCCCO)cc2)O[C@H]1c1ccccc1N=[N+]=[N-]	-8.4
C[C@@H]1CCCCO[C@@H](CN(C)C(=O)NC2CCCCC2)[C@@H](C)CN([C@@H](C)CO)C(=O)c2cc(NS(=O)(=O)c3cn(C)cn3)ccc2O1	0.4
COc1ccc(CN(C)C[C@@H]2Oc3ccc(NC(=O)CCC(F)(F)F)cc3C(=O)N([C@H](C)CO)C[C@H]2C)cc1	-0.3
COc1ccc(S(=O)(=O)N(C)C[C@H]2Oc3ccc(NS(=O)(=O)c4ccc(F)cc4)cc3CC(=O)N([C@H](C)CO)C[C@@H]2C)cc1	0.9
C[C@@H]1CN([C@H](C)CO)C(=O)c2cc(NC(=O)c3ccncc3)ccc2O[C@@H](C)CCCCO[C@H]1CN(C)S(=O)(=O)c1cn(C)cn1	-0.1
C[C@H](CO)N1C[C@H](C)[C@@H](CN(C)S(=O)(=O)c2ccccc2C#N)OCc2cn(nn2)CCCC1=O	-0.5
C[C@H]1CN([C@@H](C)CO)C(=O)Cc2cc(NS(=O)(=O)c3ccc(Cl)cc3)ccc2O[C@@H]1CN(C)Cc1ccc(C(=O)O)cc1	0.8
C[C@@H]1CN([C@H](C)CO)C(=O)c2cccc(NC(=O)C3CCCCC3)c2O[C@@H]1CN(C)C(=O)Nc1ccc(F)cc1	-0.7
C[C@@H]1CN([C@H](C)CO)C(=O)Cc2cc(NS(=O)(=O)c3ccccc3)ccc2O[C@@H]1CN(C)CC1CCCCC1	-1.1
C[C@@H]1CN([C@H](C)CO)C(=O)Cc2cc(NC(=O)CCN3CCOCC3)ccc2O[C@H]1CN(C)Cc1ccc(Oc2ccccc2)cc1	-0.5
COc1ccc(CN(C)C[C@@H]2Oc3ccc(NS(=O)(=O)c4cccs4)cc3CC(=O)N([C@@H](C)CO)C[C@H]2C)cc1	-0.7
C[C@H](CO)N1C[C@H](C)[C@H](CN(C)CC2CC2)Oc2ccc(NC(=O)Cc3cn(C)c4ccccc34)cc2C1=O	0.3

Of the compounds above, five contain a Cl atom.
SMILES	A1 apoptosis 2
C[C@H](CO)N1C[C@H](C)[C@@H](CN(C)S(C)(=O)=O)OCCCC[C@H](C)Oc2ccc(NS(=O)(=O)c3ccc(Cl)cc3)cc2C1=O	-0.5
C[C@@H]1CCCCO[C@H](CN(C)C(=O)Nc2ccc(C(F)(F)F)cc2)[C@H](C)CN([C@@H](C)CO)C(=O)c2cc(NS(=O)(=O)c3ccc(Cl)cc3)ccc2O1	-1.3
Cc1noc(C)c1S(=O)(=O)Nc1ccc2c(c1)CC(=O)N([C@H](C)CO)C[C@@H](C)[C@H](CN(C)S(=O)(=O)c1ccc(Cl)cc1)O2	-0.9
C[C@H](CO)N1C[C@H](C)[C@@H](CN(C)C(=O)Nc2ccc3c(c2)OCO3)OCCCC[C@H](C)Oc2ccc(NS(=O)(=O)c3ccc(Cl)cc3)cc2C1=O	1.6
C[C@H]1CN([C@@H](C)CO)C(=O)Cc2cc(NS(=O)(=O)c3ccc(Cl)cc3)ccc2O[C@@H]1CN(C)Cc1ccc(C(=O)O)cc1	0.8

Not all compounds are listed. The share of hits here may be higher or lower than overall.
